Compound activity from PubChem.
AF4-AF9 inh: MLL-AF4/AF9 protein interaction inhibition; AID 651704; inhibition, % at 10 µM; P42568; AlphaScreen, biotin-AF4 peptide binding to FLAG-AF9; actives 0.47% (n = 350,000);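 active = every replicate reaching a set inhibition limit, whatever the replicate mean, cut at about 25% in these data; inconclusive = mean inhibition reaches that limit but some replicates miss it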;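 also: 0% = plate neutral control median and 100% = total signal loss; the record names both 10 and 1 µM as test concentration; the first replicate is given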
Target sequence (P42568 whole entry, looked up): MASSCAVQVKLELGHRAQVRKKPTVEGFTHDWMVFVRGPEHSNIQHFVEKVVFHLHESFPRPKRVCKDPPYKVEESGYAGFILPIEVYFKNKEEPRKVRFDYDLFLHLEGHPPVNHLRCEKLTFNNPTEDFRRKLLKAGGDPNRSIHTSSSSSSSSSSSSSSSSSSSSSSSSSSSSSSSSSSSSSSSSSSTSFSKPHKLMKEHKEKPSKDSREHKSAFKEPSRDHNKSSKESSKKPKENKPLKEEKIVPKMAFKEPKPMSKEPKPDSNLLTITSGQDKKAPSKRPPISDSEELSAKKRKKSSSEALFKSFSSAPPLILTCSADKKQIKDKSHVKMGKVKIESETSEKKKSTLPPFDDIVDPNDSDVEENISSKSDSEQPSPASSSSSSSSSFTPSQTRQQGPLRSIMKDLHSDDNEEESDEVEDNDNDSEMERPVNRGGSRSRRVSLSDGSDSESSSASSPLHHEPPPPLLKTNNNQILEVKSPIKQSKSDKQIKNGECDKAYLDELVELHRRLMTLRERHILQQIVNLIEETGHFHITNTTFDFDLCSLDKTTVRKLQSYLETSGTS
UCH37 DUB inh: inhibitors of human deubiquitinating enzyme UCH37 | purified proteasome/UCH37, Ub-AMC cleavage fluorescence | inhibition, % (no concentration beside the values) | actives 0.33% (n = 330,000);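 active = mean of two replicates above 20%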;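 also: 0% = compound-free wells with enzyme and 100% = wells lacking proteasome; stock transfer was 100 nL into about 20 µL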
Target sequence (Q9Y5K5 whole entry, looked up): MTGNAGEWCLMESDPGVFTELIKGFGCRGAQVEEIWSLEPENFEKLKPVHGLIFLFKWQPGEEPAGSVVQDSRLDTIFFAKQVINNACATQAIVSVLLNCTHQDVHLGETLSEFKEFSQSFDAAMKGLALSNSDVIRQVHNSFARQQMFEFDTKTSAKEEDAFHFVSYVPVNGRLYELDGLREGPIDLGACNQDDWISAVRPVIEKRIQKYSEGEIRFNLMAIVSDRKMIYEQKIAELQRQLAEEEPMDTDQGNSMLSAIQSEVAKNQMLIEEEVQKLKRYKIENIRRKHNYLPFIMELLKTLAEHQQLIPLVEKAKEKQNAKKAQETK
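system = Proteasome-associated human UCH37 deubiquitinase | amount = 0.15 nM proteasome as dispensed | medium = pH 7.4 Tris-HCl (50 mM) with ovalbumin, ATP-MgCl2, DTT | incubation = 30 min preincubation with enzyme, 25 min cleavage at room temperature | detection = AMC fluorescence 355/460 nm | read-out basis = percent inhibition | controls = no-proteasome and no-compound wells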
RanGTP-Imp inh: inhibitors of RanGTP-importin-beta interaction, primary screen, biochemical, FRET, CFP-Ran, YFP-importin-beta, homogeneous; cell-free CFP-Ran/YFP-importin-beta FRET ratio; inhibition, % (no concentration beside the values); actives 1.1% (n = 300,000);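 active = most replicates above 15%; inconclusive = exactly half above 15%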;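 also: 0% = DMSO wells and 100% = Ran loaded with GDP instead of GTP; wells of about 40 µL received 100 nL stock; the first replicate is given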
Vif TR-FRET: inhibitors of Vif binding to APOBEC3G peptide, primary screen, biochemical, TR-FRET, GST-Vif 1-94, biotin-A3G peptide, dose response retest (AID 1117319); TR-FRET GST-Vif / biotin-A3G peptide binding; higher % means a stronger effect; test concentration not given here; strong numbers were not always called active; inhibition, %; hits with a dose series show IC50 in µM; actives 0.57% (n = 260,000);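 active = above the screen mean plus three standard deviations and confirmed in dose response; inconclusive = results disagree or hit not tested in dose response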;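 also: Vif residues 1-94 fused to GST binding biotinylated APOBEC3G peptide 110-148; 0% = full assay without inhibitor and 100% = GST in place of GST-Vif; retest series ran down from 100 µM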
HNF4A DNA FP: change in binding of human HNF4 alpha to DNA; actives 0.3% (n = 360,000); activity change, % at 10 µM; P41235; HNF4a-FITC DNA binding, fluorescence polarization, 1 h; AID 1224865; in the data active = activity change above about 30%, passing the limit was not always enough;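 also: controls were the assay level and a saturating level of protein; the project sought stronger binding though the title names inhibitors; some compounds called inactive have numbers as strong as hits; positive values seem to mean higher polarization but the record does not say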
Ecoli growth: blocks Escherichia coli growth; actives 0.21% (n = 330,000); OD600, 23 h; hits give low values; OD600 absorbance (test concentration not listed); AID 1053175;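 active = OD600 absorbance below the run mean of sample wells minus 3.6 SD, in any replicate, cut at about 0.56 in these data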;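 also: stock transfer was 300 nL into about 60 µL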
FGF22 binding: FGF22 (human) thermal shift binding. Q9HCT0. recombinant FGF22 thermal shift, SYPRO orange fluorescence; percent of sucrose octasulfate shift, DMSO zero. calls only at 9.99 µM. actives 1.5% (n = 340,000). AID 651658;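 active = melting point raised past a set limit in the mean and every replicate; inconclusive = no clear call; three in four hits are not shown here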
Target sequence (Q9HCT0 whole entry, looked up): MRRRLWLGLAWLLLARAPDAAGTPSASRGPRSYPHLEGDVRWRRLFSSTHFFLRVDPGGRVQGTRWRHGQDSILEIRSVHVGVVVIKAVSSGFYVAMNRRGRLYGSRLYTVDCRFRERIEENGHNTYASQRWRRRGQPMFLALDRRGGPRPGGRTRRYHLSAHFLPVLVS
Numbers without * were called inactive; i = inactive; ? = inconclusive; nt = not tested or not shown; & = joins results of further samples. The list is partial, so the mix of outcomes need not match the whole.

SMILES	AF4-AF9 inh	UCH37 DUB inh	RanGTP-Imp inh	Vif TR-FRET	HNF4A DNA FP	Ecoli growth	FGF22 binding
COc1cc(/C=N/N2CCOCC2)ccc1OCc1ccc(Cl)cc1	-2.0	nt	1.4	nt	4.5	nt	i
O=C(CCCc1ccccc1)NCCc1ccc(F)cc1	-0.3	4.3	-0.2	-2%	0.5	0.59	i
O=C(/C=C/c1ccc(Cl)cc1)N1CCN(c2ccccc2[N+](=O)[O-])CC1	3.3	2.7	0.2	nt	2.2	0.71	i
O=C(CNC(=O)c1sc2ccccc2c1Cl)OCc1ccccc1	-0.7	0.8	0.1	nt	-1.0	0.68	i
Cc1ccc(NC(=O)c2ccccc2NS(=O)(=O)c2ccc(Cl)s2)cc1S(=O)(=O)N1CCOCC1	-6.3	-2.9	1.2	3%	-0.4	0.67	i
CCCS(=O)(=O)NC(=O)C1(C)CCN(C(=O)c2nc(C)oc2C)C1 (stereo not drawn)	-1.4	nt	nt	nt	1.3	nt	i
Cn1c(SCc2c(Cl)cccc2Cl)nnc1-c1ccc2nonc2c1	nt	-7.3	7.2	0%	1.1	0.7	i
CN1CCCN(C(=O)c2ccc(Br)s2)CC1	1.2	1.6	?	-12%	-2.8	0.71	i
O=C(CCC1CCCCC1)NCCS(=O)(=O)N1CCN(c2ccccc2)CC1	-11	4.3	2.1	-4%	-4.1	0.71	i
Cc1cc(N2CCOCC2)nc(-c2ccccc2O)n1	nt	-1.9	-0.1	-11%	-1.1	0.61	nt
CC1(C)Cc2c(c(N3CCOCC3)nc3snc(NC(=O)c4ccccc4)c23)CO1	nt	6.5	3.2	-42%	-3.5	0.67	nt
NC(=O)C1CCN(c2ncccc2[N+](=O)[O-])CC1	-1.9	2.5	-2.3	3%	-1.5	0.73	i
COc1ccc(Cc2noc(CN3CCCN(Cc4ccc(F)cc4)CC3)n2)cc1OC	2.1	3.8	3.3	4%	2.1	0.73	i
N#CN=C(N)c1ccccc1	nt	1.1	-0.1	?	-0.9	0.7	nt
COc1ccc(-c2nn(-c3ccccc3)cc2/C=N/Nc2ccccn2)cc1OC	nt	nt	-5.0	16%	-7.1	nt	nt
CCC(=O)N1CCC1(C)C(=O)Nc1cccc2c1CCCC2 (stereo not drawn)	-3.0	nt	nt	nt	0.5	nt	i
O=C(CCC(=O)n1ncc2ccccc21)N1CCCCC1	1.5	2.7	-2.1	nt	2.9	0.7	i
COc1ccc(S(=O)(=O)N2Cc3ccccc3CC2C(=O)O)cc1OC (stereo not drawn)	1.9	-0.7	3.8	-5%	2.3	0.77	i
CCOc1ccc(-n2c(C)nc3cc(C(=O)NCC4CCCO4)ccc32)cc1 (stereo not drawn)	2.6	1.3	2.3	nt	2.4	0.68	i
CCCSc1ccc(C(=O)Nc2ccc(F)cc2F)cn1	-5.6	6.8	-1.4	-3%	-0.4	0.7	i
COc1cc(-c2nnc(NC(=O)CCS(=O)(=O)c3ccc(F)cc3)o2)cc(OC)c1OC	-3.9	nt	4.0	nt	-1.5	nt	i
COc1ccc(OC)c(C(=O)NC2CC(C)(C)Cc3c2cnn3-c2ccccc2)c1 (stereo not drawn)	3.8	-2.4	1.6	2%	2.8	0.68	i
O=C1Cc2ccccc2Sc2c(OCCN3CCCCC3)cccc21	nt	0.2	1.9	-17%	0.7	0.65	nt
CN(c1ccc(Cl)cc1)S(=O)(=O)c1nnc(NC(=O)c2ccco2)s1	-0.1	4.3	-0.2	13%	-68	0.68	i
COc1ccc(C(=O)Nc2ccc([N+](=O)[O-])cn2)c(OC)c1	nt	6.0	2.3	nt	2.4	0.74	nt
CN(C)C(=S)NC(=O)C(c1ccccc1)c1ccccc1	-2.9	4.6	-1.2	nt	2.3	0.65	i
CCCOc1nnnn1-c1ccccc1	nt	1.0	0.0	24%	-1.6	0.7	nt
CCCCC(=O)NC(c1ccccc1OC)c1ccc2cccnc2c1O (stereo not drawn)	5.9	-2.7	-3.0	15%	-2.1	0.62	i
Cn1c(CCC(=O)Nc2ccc(N3CCOCC3)cc2)nc(=O)c2ccccc21	nt	0.3	2.1	9%	-1.5	0.73	nt
O=C(C[C@@H]1C[C@@H]2c3cc(NS(=O)(=O)c4ccc(F)cc4)ccc3O[C@@H]2[C@H](CO)O1)NCc1ccc(Oc2ccccc2)cc1	-3.5&-1.6	nt	nt	nt	4.5	nt	i
O=C1CC(SC(=Nc2ccccc2)Nc2ccccc2)C(=O)N1c1cccc2ccccc12 (stereo not drawn)	nt	2.6	4.2	?	0.3	0.71	nt
Cc1cc(OCC(=O)NCCN2CCOCC2)ccc1Br	nt	-0.7	3.0	-4%	0.3	0.69	nt
COc1ccc(C(=O)NC2CCCCCC2)cc1S(=O)(=O)N1CCCC1	-1.9	2.7	2.9	7%	2.4	0.65	i
O=C(CNC(=O)c1ccc(N2C(=O)c3ccccc3C2=O)cc1)OCC(=O)c1ccccc1	-5.3	3.2	-1.5	23%	-1.3	0.72	i
Cc1ncoc1C(=O)Nc1ccc(Oc2ccccc2)cc1	nt	3.0	-2.9	16%	-3.9	0.74	nt
CCCOc1ccc(-c2c(C(=O)N/N=C(\C)c3cccs3)nnn2-c2nonc2N)cc1	-0.8	nt	3.6	nt	2.3	nt	i
Cc1ccc(N2C(=O)N3[C@H](c4cccc(C)c4)[C@@H]4C(=O)N(Cc5ccccc5)C(=O)[C@@H]4[C@]3(C)C2=O)cc1	-3.1	2.5	0.5	nt	-2.3	nt	i
O=C(Nc1ccc(O)c2c(=O)cc(-c3cccc(Cl)c3)oc12)c1ccccc1Cl	3.2	1.7	3.5	nt	-3.0	0.67	i
COc1ccc(/C=N/N=C/c2c[nH]c(=O)c(C#N)c2Nc2ccccc2)cc1	nt	nt	-2.5	?	0.5	nt	nt
CCCN1C(=O)c2ccc(C(=O)Nc3cc(C)on3)cc2C1=O	nt	1.1	-1.1	2%	-2.5	0.74	nt
CCN1CCN(C(=O)C(Cc2ccccc2)NC(=O)c2ccc(Cl)c(S(=O)(=O)N(C)C)c2)CC1 (stereo not drawn)	2.5	-2.0	nt	nt	-2.4	0.71	i
CC(=O)c1cnc2cc(-c3cccc(Br)c3)nn2c1C	-4.1	-1.9	-0.9	6%	5.3	0.67	i
COc1ccc(OC)c(CN2CCN(C(=O)CCC(=O)c3cccs3)CC2)c1	1.9	-0.7	-3.5	-2%	1.8	0.69	i
Cc1c(OCC(=O)NCc2ccncc2)ccc2c3c(c(=O)oc12)CCC3	-2.6	nt	17*	nt	0.4	nt	i
COc1cc(OC)c(S(=O)(=O)NCc2ccco2)cc1S(=O)(=O)NCc1ccco1	nt	-1.1	4.8	?	-0.6	0.76	nt

Some of the entries above, reformatted:
AF4-AF9 inh | UCH37 DUB inh | RanGTP-Imp inh | Vif TR-FRET | HNF4A DNA FP | Ecoli growth | FGF22 binding | Compound
nt | 3.0 | -2.9 | 16% | -3.9 | 0.74 | nt | Cc1ncoc1C(=O)Nc1ccc(Oc2ccccc2)cc1
-0.8 | nt | 3.6 | nt | 2.3 | nt | i | CCCOc1ccc(-c2c(C(=O)N/N=C(\C)c3cccs3)nnn2-c2nonc2N)cc1
-3.1 | 2.5 | 0.5 | nt | -2.3 | nt | i | Cc1ccc(N2C(=O)N3[C@H](c4cccc(C)c4)[C@@H]4C(=O)N(Cc5ccccc5)C(=O)[C@@H]4[C@]3(C)C2=O)cc1

(listing goes on)
SMILES	AF4-AF9 inh	UCH37 DUB inh	RanGTP-Imp inh	Vif TR-FRET	HNF4A DNA FP	Ecoli growth	FGF22 binding
CCOc1cccc(C(=O)Nc2ccc3oc(Cc4ccc(Cl)cc4)nc3c2)c1	nt	0.9	0.4	0%	0.3	0.69	nt
CCCNC(=O)c1ccc(N2CCC3(CC2)CC(c2ccccc2)=NO3)c(NC(=O)c2cccc(OC)c2)c1	0.2	1.4	-2.3	nt	5.0	nt	i
Cc1cc(C)c(C)c(OCCCCN(C)Cc2ccccc2)c1	13	5.0	0.5	nt	3.6	0.63	i
O=C(NCC1CCCO1)c1ccc2c(c1)N(Cc1ccc(F)cc1Cl)C(=O)CS2 (stereo not drawn)	-1.4	6.7	-0.9	nt	2.6	0.71	i
O=C(Nc1ccc2nc3n(c(=O)c2c1)CCCCC3)c1c(F)ccc([N+](=O)[O-])c1F	4.1	nt	5.3	nt	0.2	nt	i
COc1ccc(OC)c(C(C)NC(=O)C(C)Cc2ccccc2)c1 (stereo not drawn)	-2.0	1.3	-0.6	nt	0.9	0.67	i
CCOC(=O)c1ccc(N/C=C/C(=O)C(C)(C)C)cc1	0.5	3.2	2.4	6%	2.4	nt	i
c1ccc(C2CC(c3ccccc3)n3c(nc4ccccc43)N2)cc1 (stereo not drawn)	-3.9	2.0	2.5	nt	3.3	0.68	i
COC(=O)c1ccc(C)c(NC(=O)CN(c2ccccc2)S(=O)(=O)N(C)C)c1	-2.4	-0.4	3.9	nt	-0.6	0.66	i
O=C(O)c1cccc(N/N=C/c2cccs2)c1	-100	nt	-4.6	0%	1.8	nt	i
Cc1cc(C)cc(N(CC(=O)NC2CCCC2)S(=O)(=O)c2c(C)[nH]c(=O)[nH]c2=O)c1	-1.4	1.0	4.4	-2%	2.0	0.64	i
Cc1ccc(S(=O)(=O)Nc2ccc(N3CCOCC3)cc2)cc1C	0.9	8.3	2.3	nt	-0.9	0.68	i
COc1ccccc1N1C(=O)c2ccccc2NC1c1cc(OC)c(OC)c(OC)c1 (stereo not drawn)	1.0	-491	-9.1	nt	1.1	0.7	i
Cc1c(NC(=O)C(C)OC(=O)c2cccc(S(=O)(=O)N3CCOCC3)c2)c(=O)n(-c2ccccc2)n1C (stereo not drawn)	0.8	1.5	0.8	-11%	nt	0.68	i
CCNC(=S)NNC(=O)C(c1ccccc1)c1ccccc1	nt	2.8	1.7	4%	-2.2	0.63	nt
CC(C)(C)C(=O)Nc1sc2c(c1C#N)CCC2	-2.3	0.2	?	-4%	-0.8	0.66	i
O=C(Nc1ccccc1)Nc1cccc2cccnc12	nt	2.6	1.6	0%	-0.7	0.65	nt
COCCn1c(-c2ccccc2)nc2c(c(=O)c3ccccc3n2C)c1=O	nt	1.2	-1.2	nt	nt	0.69	nt
Cc1nn2c(C)c(C(=O)Nc3ccccc3)cnc2c1-c1ccccc1	1.0	1.0	0.9	-2%	-4.8	0.67	i
Cc1nnc(NC(=O)CSc2ncnc3c2cnn3-c2ccccc2C)s1	nt	3.4	-1.1	-6%	-1.2	0.66	nt
O=C(/C=C/c1ccc(N2CCC(c3ccccc3)=N2)cc1)c1ccccc1	-2.2	8.2	-77	-1%	nt	0.72	i
CCCCCn1c(=O)[nH]c2cc(C(=O)NCc3ccccn3)ccc2c1=O	nt	-5.8	-2.7	5%	-3.8	0.7	i
O=C(NCCCC1CCCC1)C1CCC(=O)N(Cc2ccccc2F)C1 (stereo not drawn)	-0.8	0.5	-1.5	22%	0.4	0.7	i
O=c1c(Oc2ccccc2)coc2cc(O)cc(O)c12	-2.5	3.2	3.5	nt	-1.1	0.65	i
CC1(c2ccccc2Cl)NC(=O)N(CC(=O)NC(=O)NCc2ccco2)C1=O (stereo not drawn)	nt	1.6	-1.9	-1%	3.8	0.73	nt
Cc1c(OCC(=O)N[C@@H](Cc2ccccc2)C(=O)O)ccc2c3c(c(=O)oc12)CCC3	-3.3	-22	3.2	nt	4.0	0.7	i
COC(=O)CCC(=O)N1CCCC(CO)(Cc2ccccc2)C1 (stereo not drawn)	3.1	-0.7	0.6	1%	0.3	0.71	i
CC(C)c1nc(SCC(=O)Nc2ccc(N3CCOCC3)cc2)c2ccccc2n1	nt	2.9	8.2	10%	2.6	0.72	nt
Nc1nc(-c2ccccc2)nn1S(=O)(=O)c1ccccc1	-0.6	3.3	-0.7	0%	1.0	0.68	i
